# MgrA DNA FP: S. aureus MgrA activity modulators, primary screen, biochemical, S. aureus Newman, fluorescence polarization; MgrA-DNA binding; inhibition, %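 (about 10 µg/mL by stock and volumes)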; actives 0.13% (n = 84,000); AID 602314, 2012;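 active = above 50% in either of two replicates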;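 also: 0% = protein plus DNA without compound and 100% = DNA alone without protein; higher means less MgrA bound to DNA so lower polarization; one replicate is shown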
# S aureus helic: inhibitors of S. aureus replicative helicase, primary screen, biochemical, fluorescence unwinding readout; replicative DNA helicase (DnaC/DnaB), Staphylococcus aureus; actives 0.05% (n = 120,000); inhibition, %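 (tested at about 80 µM)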; purified S. aureus helicase, fluorescence unwinding assay; about half of the hits fall short of the stated cut;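 active = both duplicates at 50% or more, or one of them with a favoured structure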;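 also: 0% = mean of negative control wells and 100% = mean of positive control wells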
# The depositor's hits bear a star; . = not tested or not shown; & = joins results of further samples. These rows are one share of the data; rates above refer to the full screens.
molecule	MgrA DNA FP	S aureus helic
CC(=O)Nc1ccc(OCC(O)CN2CCN(C(c3ccccc3)c3ccccc3)CC2)cc1 (stereo unspecified)	.	8
Cn1c(=O)c2nc3ccc(NC(=O)Nc4ccccc4)cc3nc2n(C)c1=O	.	-53
Cc1cc2occ(CC(=O)OC(C)C(=O)NC3(C#N)CCCCC3)c2cc1C (stereo unspecified)	.	3
COc1ccccc1C(N)=S	.	12
Oc1oc(-c2ccccc2)nc1C1=NCCC1	.	-3
CSCCC(=O)N1CCN(S(=O)(=O)c2ccc(C)cc2)CC1	.	-10
O=C(Nc1nc2ccc(F)cc2s1)c1ccccc1Br	.	10
COC(=O)Nc1ccc(S(=O)(=O)C(F)F)cc1	0.4	24
CCOC(=O)CSc1nc(SCC(=O)OCC)c2c3c(sc2n1)CCC3	4.5	.
O=c1ccc(-c2ccc(S(=O)(=O)NCCCc3ccco3)s2)n[nH]1	.	8
CCN(CC)C(=O)C1=C(C)Nc2nnnn2C1c1cccnc1 (stereo unspecified)	-0.8	-1
Cc1c(NC(=O)COC(=O)c2ccc(S(=O)(=O)N3CCCC3)cc2)c(=O)n(-c2ccccc2)n1C	.	13
O=C(NCc1cccnc1)C1CCCCN1S(=O)(=O)c1ccc(F)cc1 (stereo unspecified)	.	7
c1csc(-c2nnc3n2-c2ccccc2SC3)c1	-1.8	.
O=C(O)CNC(=O)c1cccnc1Oc1ccccc1	-3.4	.
CCOC(=O)c1cc(-c2ccccc2)n(CC(=O)N2CCN(c3cc(Cl)ccc3C)CC2)c1C	1.9	-15
CC1(C)N([O-])C2=C(CCCC2)[N+]1=O	5.8	13
c1ccc2c(c1)CCN2c1ncnc2nc[nH]c12	.	14
NC(=O)CSc1nnc(COc2ccccc2)n1C1CCCCC1	1.4	5
COc1ccc(/C=C2/C(=N)N3OC(C)=CC3=NC2=O)cc1	.	-11
CCOC(=O)c1ccc(N2CCOCC2)c(N)c1	-0.7	.
S=c1n(CN2CCOCC2)nc(Cc2cccs2)n1C1CCCCC1	.	3
COc1ccccc1NC(=O)C1=C(C)NC(=S)NC1C (stereo unspecified)	2.5	4
O=C(CN1C(=O)C2CC=CCC2C1=O)OCc1nnc(-c2ccccc2Br)o1 (stereo unspecified)	.	2
O=S(=O)(NC1CCCCC1N1CCCCC1)c1ccc(Cl)cc1 (stereo unspecified)	0.9	-12

# Reprinted at random: two entries already listed
molecule	MgrA DNA FP	S aureus helic
CC1(C)N([O-])C2=C(CCCC2)[N+]1=O	5.8	13
COC(=O)Nc1ccc(S(=O)(=O)C(F)F)cc1	0.4	24

# Continuation.
molecule	MgrA DNA FP	S aureus helic
CC(Sc1ncnc2c1oc1ccccc12)C(=O)c1ccc(F)cc1 (stereo unspecified)	.	-1
CCOC(=O)c1c(CN2CCCC2)n(C2CCCCC2)c2cc(Br)c(O)cc12	0.3	.
COC(=O)Cc1csc2ccc(Cl)cc12	3.6	.
CC1(C)CC(=O)c2cnn(-c3nc4ccccc4[nH]3)c2C1	0.7	24
O=C(Cc1ccccc1F)Nc1ccnn1Cc1ccccc1	.	24
O=C(N/N=C/c1ccc(F)cc1)c1ccc(NC(=O)C2CC2)cc1	-6.8	-3
Cc1ccc(-c2cc(C)n3nc(N4CCOCC4)c(C#N)c3n2)cc1	.	-1
CNC(=O)CSc1nc2ccccc2[nH]1	1.5	-12
Cc1cc2n(n1)C(c1ccccc1)Nc1ccccc1-2 (stereo unspecified)	-4.7	10
CCOc1ccccc1NC(=O)C1CCC(=O)N1S(=O)(=O)c1ccc(C)cc1 (stereo unspecified)	3.6	0
CCn1c(NNC(=O)c2cccnc2)nc2ccccc21	0.1	5
COc1ccccc1NC(=S)Nc1ccccc1	.	-6
COc1ccc(NC(=O)c2oc3ccc(S(=O)(=O)N4CCC5(CC4)OCCO5)cc3c2C)cc1	0.4	-8
CCCC1c2cccn2CCN1C(=O)NCc1ccccc1 (stereo unspecified)	.	7
COc1ccccc1NC(=S)N/N=C1/C=C(C)CC1	.	-8
N=c1ccn(CC(=O)N2CCCc3ccccc32)c2ccccc12	.	26
Cc1ccc(SC(=O)c2ccc(C#Cc3ccccc3)o2)cc1	-0.8	.
N#Cc1ccc(Oc2ccc(NC(=O)c3ccc(Br)o3)cc2)cc1	.	-28
COc1cccc(OCC(=O)OC2CCS(=O)(=O)C2)c1 (stereo unspecified)	.	13
CCCCOC(C)n1ccc(=O)[nH]c1=O (stereo unspecified)	.	-21
O=C(NCCC1=CCCCC1)c1ccc2c(c1)ncn2C1CCCC1	0.7	10
N#Cc1c(-c2ccco2)cc(-c2ccco2)[nH]c1=O	56*	.
Clc1cc2c(c3ncccc13)OCN(CCC1=CCCCC1)C2	5.3	11
Cc1cc(=O)oc2n[nH]c(C)c12	2.5	.
O=C(CSc1ccccc1)N1CCc2ccccc2C1	-2.5	5
Cn1ncc(C(=O)O/N=C/c2ccc(OC(F)(F)F)cc2)c1-n1cccc1	.	-13
O=C(CN=C1NS(=O)(=O)c2ccccc21)N1CCC(c2nc3ccccc3s2)CC1	.	-5
Cc1ccc(NC(=O)COC(=O)C2=NC=CN3CCS(=O)(=O)N=C23)cc1	.	7
O=C(CSc1nncs1)NCCN1C(=O)CSC1=O	.	15
FC(F)(F)Oc1ccc(C2=NCCc3sccc32)cc1	2.5	.
CCNc1nc(NCC)nc(NNS(=O)(=O)c2cc(Br)ccc2Br)n1	.	10
FC(F)(F)c1ccc(-c2noc(-c3ccno3)n2)cc1	3.5	.
Cc1ccc(S(=O)(=O)NC(C)(C)CSc2ncccn2)cc1	.	15
COc1cc(C2c3c(-c4ccc(F)cc4)n[nH]c3C(=O)N2c2ccccc2)ccc1O (stereo unspecified)	.	8
CN(C)c1ccc(/C=N/n2cnc3ccccc32)cc1	0.9	-10
N#C/C(=C(/O)c1cccc(Cl)c1)c1nc2ccccc2s1	.	1
Cc1ccc(C)c(C(=O)COC(=O)c2cccc(C(=O)OCC(=O)c3cc(C)ccc3C)n2)c1	0.4	-2
CCC(C)(C)NC(=O)Cn1c(C)csc1=O	.	-2
CCOC(=O)c1ccc(N2C(=O)NC(=O)/C(=C\c3ccc(N(C)C)cc3)C2=O)cc1	-1.5	.
CCOC(=O)c1cc(-c2ccco2)nn1-c1ccc(C)cc1C	.	0
COc1ccc(-c2ccc(-c3ccccc3)o2)cc1	-1.2	-2
COc1ccc(NC(=O)CCN2CCOCC2)cc1	2.1	-8
COc1ccc(S(=O)(=O)Nc2ccc3oc(=O)sc3c2)cc1	.	-16
Cc1ccc(NC(=O)COC(=O)CN2CSCC2=O)cc1C	.	8
Cc1cc(=O)n(Cc2ccc(Cl)cc2)c(SCC(N)=O)c1C#N	.	-13
CCOC(=O)c1c(N)n(CCO)c2nc3ccccc3nc12	.	-10
COc1ccc(NCc2cc3ccccc3[nH]c2=O)cc1	-0.4	9
NC(=O)c1cccc(N=Cc2cc(Br)ccc2O)c1	7.0	4
CN(CC(O)COc1ccc(S(=O)(=O)N2CCOCC2)cc1)C1CCCCC1 (stereo unspecified)	.	4
O=C(Cn1ccsc1=NC(=O)c1ccco1)c1ccccc1	-2.5	8

# Copied from the list.
# S aureus helic result of O=C(CSc1nncs1)NCCN1C(=O)CSC1=O = 15
# S aureus helic result of Cc1ccc(NC(=O)COC(=O)CN2CSCC2=O)cc1C = 8

# The list continues.
molecule	MgrA DNA FP	S aureus helic
CC(=O)NCCC(=O)N1CCc2ccccc21	.	-10
CC(NC(=O)c1ccccc1)C(O)c1ccccc1 (stereo unspecified)	.	6
O=C(O)c1ccc(CSc2nc(-c3ccccc3)cc(C(F)(F)F)n2)o1	.	31
Fc1ccc(N2CCN(Cc3cnc(-c4ccccc4)[nH]3)CC2)cc1	-1.4	.
C=CCn1c(Sc2c3c(nc4ncnn24)CCC3)nnc1-c1ccccc1	.	-14
O=C(NCCn1ccc2ccccc21)c1cc2ccccc2oc1=O	.	-18
O=C(NN=C1CCCCC1)NC1CCCCC1	.	-13
Cc1ccc(S(=O)(=O)N(CCC(N)=O)c2ccccc2)cc1	.	-3
CCc1nc2n[nH]c(N)c2c2c1COC(C)(C)C2	-1.3	7
COc1ccc(-c2nn(-c3ccccc3)cc2C=Nc2ccc(O)cc2)cc1	1.5	35
CC(C)C(=O)Nc1nnc(SCC(=O)Nc2ccccc2)s1	.	-16
S=C(Nc1ccccc1)N(Cc1ccccc1)Cc1ccccc1	0.1	3
CCCc1cc(=O)n2nc(N(C)CC(=O)N3CCCC3)sc2n1	.	-22
Cc1nnc(Nc2ccccc2O)c2ccccc12	-0.4	.
O=C(O)Cc1ccc(-n2c(-c3ccncc3)n[nH]c2=S)cc1	-1.0	14
CC1CCN(S(=O)(=O)c2ccc3c(c2)CCN3C(=O)Nc2ccccc2)CC1	.	23
COC(=O)c1ccc(NC(=O)CSc2nc(=O)cc(N)n2CCc2ccccc2)cc1	-1.2	17
COc1ccccc1NC(=O)CSC1=NCCS1	.	-12
Cc1ccc2c(c1)c1c(c(=O)n(-c3ccccc3)c(=O)n1CC(=O)c1ccccc1)n2C	3.0	14
COc1cc(C(=O)NNc2ccccc2)cc(OC)c1OC	-0.7	.
Cc1ccc(C(=O)N/C(=C/c2ccco2)C(=O)Nc2cccc(C)c2)cc1	.	-22
COc1ccc(N2CCSC2C(=O)NN)cc1 (stereo unspecified)	1.8	8
Cc1ccc(OC(=O)C(CCS(C)(=O)=O)N2C(=O)c3ccccc3C2=O)c(-n2nc3ccccc3n2)c1 (stereo unspecified)	.	10
CC(=O)N[C@@H](CC(C)C)C(=O)O	-3.9&1.8&5.0	.
Cc1cc(SCC(=O)O)nc2ccccc12	-3.0	-4
CC(C)S(=O)(=O)c1csc(C(=O)Nc2ccc(F)cc2)c1N	-3.0	.
Cc1ccccc1OC(=O)c1ccc2c(c1)C(=O)N(C)C2=O	-4.4	4
O=C(CN1C(=O)/C(=C/c2cccc(Br)c2)SC1=S)NCCc1ccccc1	2.8	9
C=CCn1c(SCc2ccc(C(=O)O)cc2)nnc1-c1cccc(OC)c1	-0.7	-1
O=C(Nc1ccccc1)c1cccc(I)c1	0.0	.
CSc1nc(N)nc(-c2ccncc2)n1	0.2	.
O=c1cc(CP(=O)(c2ccccc2)c2ccccc2)[nH][nH]1	.	-6
Cc1onc(-c2ccccc2)c1C(=O)NCC#N	0.7	17
CCOC(=O)N1CCC(NC(=O)Cn2c3ccccc3c3cn[nH]c(=O)c32)CC1	.	-10
CCCc1nnc2sc(NC(=O)CC)nn12	4.1	7
CN1CCN(C(=O)/C(=C/c2cn(S(=O)(=O)N(C)C)c3ccccc23)NC(=O)c2ccccc2)CC1	.	10
COc1ccc(S(=O)(=O)N(CCC#N)C2CCc3ccccc32)cc1OC (stereo unspecified)	-1.4	.
Cc1ccc(C)n1CCN(C(C)C)C(C)C	.	-19
CCCN1C2CCCC1CC(NC(=O)Nc1ccc(SC)cc1)C2 (stereo unspecified)	-1.0	11
CCN(CC)Cc1cc(C2N(C(C)=O)c3cccc4cccc(c34)N2C(C)=O)ccc1O	-1.2	-5
O=C(CSc1ccccc1)Oc1ccc2c(c1)OCO2	.	19
CC1CC(C(F)(F)F)n2nc(C(=O)O)cc2N1 (stereo unspecified)	-5.3	16
Cc1nc(C)c(-c2ccnc(-c3ccc(C(F)(F)F)cc3)n2)o1	4.3	.
O=C(O)C1CC(c2ccccc2)=NO1 (stereo unspecified)	4.7	-10
Cc1ccc(C(=O)Oc2cccnc2I)cc1	-0.6	.
O=C(Cn1[nH]c(=O)c2ccccc2c1=O)N1CCSC1=NCc1ccccc1	.	7
NC(=O)c1ccc(C(=O)c2ccccc2)cc1	-11	9
N#CC1c2ccccc2C=CN1C(=O)C1=CCCCC1 (stereo unspecified)	-2.1	.
O=C(OCc1ncc(-c2ccccc2)o1)c1ccccc1SCC(=O)N1CCCC1	.	-32
O=C(CC1SC(=Nc2ccc(O)cc2)NC1=O)c1ccc(F)cc1 (stereo unspecified)	.	6

# Next records:
molecule	MgrA DNA FP	S aureus helic
Nc1nc(-c2c(Cl)cccc2Cl)no1	.	-11
CC(C)(C)OC(=O)N1CCN(C(=O)C2CCN(c3nccc(C(F)(F)F)n3)CC2)CC1	.	-7
O=C1CSC(=Nc2cccc3ccccc23)N1	-0.2	17
Cc1onc(-c2c(Cl)cccc2Cl)c1C(=O)NCC(C)(C)C	.	-14
COc1ccc(Cl)cc1NC(=O)CN(c1ccccc1)S(=O)(=O)N(C)C	0.8	13
O=C(Nc1c2c(nn1-c1ccc(Cl)cc1)CSC2)c1ccc(S(=O)(=O)N2CCOCC2)cc1	2.6	.
N#Cc1ccc(CSc2nc(N)cc(=O)[nH]2)cc1	4.7	9
Cc1oc(-c2cccc(C(F)(F)F)c2)cc1C(=O)Nc1nccs1	-0.2	-6
Cc1ccc(NC(=O)CCNS(=O)(=O)c2ccc3c(c2)CCC(=O)N3)c(Br)c1	.	-37
O=C(Nc1ccccc1)C(=S)Nc1ccccc1	3.0	-8
Cc1nccnc1-c1ccnn1S(=O)(=O)c1ccccc1	0.8	.
CCOC(=O)N1CCN(c2ccc(C(F)(F)F)cn2)CC1	.	12
NC(=O)C1CCN(C(=O)CCC(=O)c2ccc(Br)cc2)CC1	.	-7
CCn1nc(C(=O)Nc2ccc(F)cc2C)c2ccccc2c1=O	.	-3
Clc1ccccc1N=C1SCCS1	-0.7	.
O=C(CN1CCC(n2nnc3cc(F)ccc32)CC1)N1CCCc2ccccc21	-2.5	7
CCNC(=O)N(C)Cc1nc(-c2cccc(C)c2)no1	.	11
